UUG fidelity: alters start codon recognition fidelity in yeast; actives 0.13% (n = 350,000); activity score, % at 18.7 µM; S. cerevisiae UUG-firefly luciferase reporter, luminescence/redox ratio;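 active means replicate mean at a twofold rise or more, about +100% in these data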;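 further: firefly luciferase made from a UUG start codon reports start codon fidelity; reporter light over untreated wells divided by growth signal over untreated wells; some hits fall short of that in this replicate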
MT1-MMP act inh: MT1-MMP (human) activation inhibition; P50281; HT1080 RFP-PRO-GFP cells, GFP/RFP ratio fluorescence, overnight; percent of plate control window, DMSO zero; GFP/RFP ratio change, % at 20 µM; actives 0.061% (n = 360,000); AID 651647;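 active means GFP/RFP ratio change of at least 30% with cell ATP level not reduced by more than half and red fluorescence within 50% of control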; further: strong numbers were not always called active
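Material: RFP-PRO-GFP reporter HT1080 cells. Dosing: single-point 20 µM compound, 1% DMSO. Controls: DMSO and RFP-L50D-GFP cell wells. Timing: cells overnight before dosing, compound overnight, 37 °C, 5% CO2. Measure: GFP/RFP fluorescence ratio.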
Rce1 inh: blocks yeast Ras-converting enzyme | Q03530 | yeast membranes, quenched prenylated peptide cleavage fluorescence | calls only | actives 0.27% (n = 290,000);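 active means fall in fluorescence gain of 50% or more versus controls, with final raw signal at or below 3038400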;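 further: plate controls were neutral control wells for no effect and wells lacking membranes for full effect; tested at 10 µM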
Target sequence (Q03530 whole entry, looked up): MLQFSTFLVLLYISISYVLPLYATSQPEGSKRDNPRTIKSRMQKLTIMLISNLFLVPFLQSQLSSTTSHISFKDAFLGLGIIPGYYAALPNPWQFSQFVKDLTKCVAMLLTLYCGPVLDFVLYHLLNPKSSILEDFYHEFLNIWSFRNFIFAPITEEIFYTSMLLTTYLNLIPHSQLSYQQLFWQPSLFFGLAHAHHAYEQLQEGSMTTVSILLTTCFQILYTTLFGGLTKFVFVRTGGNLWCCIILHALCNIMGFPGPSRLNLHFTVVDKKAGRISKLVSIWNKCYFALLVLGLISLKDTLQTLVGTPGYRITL
HIV Env fusion: blocks HIV Env-driven cell-cell fusion; HeLa-JRFL Env/CEM21 cell fusion, luciferase; inhibition, % at 12.3 µM; actives 1.1% (n = 360,000); AID 651610;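 active means mean replicate inhibition score of at least 50 and every replicate individually at or above 50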;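 further: 0% = plate neutral controls and 100% = maraviroc near 300 nM; one replicate is shown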
CSC inhib: blocks cancer stem cells. cancer stem cell-like cells viability, luminescence. inhibition, % at 7.5 µM. actives 1.1% (n = 300,000);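 active means mean at 75% or more and at least half the replicates too; tested in HMLE shEcad cells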;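 further: 0% = median of negative and 100% = median of positive control wells; the first replicate is given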
PABP polyA inh: PABP-poly(A) binding inhibition. P11940. PABP-poly(A) RNA binding, fluorescence polarization. inhibition, % at 35 µM. actives 1% (n = 290,000). AID 2014;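 active means 50% or more with normal probe brightness, or confirmed in later tests; about a fifth of its hits are not listed in these tables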;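 further: calls also rest on retests at 20 µM and on dose response follow-up; controls were probe without protein and protein plus probe with vehicle; some compounds called inactive have numbers as strong as hits; many hits fall short of the cut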
Target sequence (P11940 whole entry, looked up): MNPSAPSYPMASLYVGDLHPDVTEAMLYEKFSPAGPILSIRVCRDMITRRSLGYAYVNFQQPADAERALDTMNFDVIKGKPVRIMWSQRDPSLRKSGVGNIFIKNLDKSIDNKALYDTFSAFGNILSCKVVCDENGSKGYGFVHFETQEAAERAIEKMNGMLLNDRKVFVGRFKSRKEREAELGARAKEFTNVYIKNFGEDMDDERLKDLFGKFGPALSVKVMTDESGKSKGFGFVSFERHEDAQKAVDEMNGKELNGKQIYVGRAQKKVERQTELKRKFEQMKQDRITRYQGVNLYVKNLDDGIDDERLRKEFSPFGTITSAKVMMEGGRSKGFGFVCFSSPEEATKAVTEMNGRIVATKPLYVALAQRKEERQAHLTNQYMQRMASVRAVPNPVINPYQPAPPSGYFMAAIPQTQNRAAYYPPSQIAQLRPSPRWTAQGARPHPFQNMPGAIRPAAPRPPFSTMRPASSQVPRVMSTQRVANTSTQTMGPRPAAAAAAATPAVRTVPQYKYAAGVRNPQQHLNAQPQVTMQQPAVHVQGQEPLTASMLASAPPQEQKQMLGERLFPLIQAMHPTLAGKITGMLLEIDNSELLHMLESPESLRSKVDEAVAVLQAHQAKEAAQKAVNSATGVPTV
eIF4H inh: inhibitors of RNA binding by human eIF4H; Q15056; eIF4H fluorescence polarization binding assay; inhibition, % at 35 µM; actives 0.94% (n = 290,000); AID 2012;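 active means 50% or more with normal probe brightness, or confirmed in later tests; about a fifth of its hits are not listed in these tables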;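 further: calls also rest on retests at 20 µM and on dose response follow-up; 0% = protein and probe with vehicle and 100% = probe without protein; strong numbers were not always called active; many hits fall short of the cut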
eIF4H inh retest: second read-out of eIF4H inh, no call of its own (marks repeat the call); inhibition, %; compound at 20 µM; confirmation average;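 mean of two retest wells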
PABP polyA inh retest: recorded beside PABP polyA inh, whose call it bears; inhibition, %; compound at 20 µM; confirmation repeats;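 mean of two retest wells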
MT1-MMP act inh RFP: also measured in MT1-MMP act inh; calls as there; RFP signal change, %; measured here: RFP expression control read;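 0 = vehicle wells; hits needed this value within 50% of zero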
The depositor's hits bear a star; i = inactive; . = not tested or not shown. The list is partial, so the mix of outcomes need not match the whole.

SMILES	UUG fidelity	MT1-MMP act inh	MT1-MMP act inh RFP	Rce1 inh	HIV Env fusion	CSC inhib	PABP polyA inh	eIF4H inh	others
CCn1cc(CN2N=C(C)CC2c2ccccc2)c(C)n1 (stereo not drawn)	1	2	4	i	0	-11	-5	-10
Cc1cc(NC(=O)CSC2=NS(=O)(=O)c3ccccc3N2)no1	4	5	-3	i	5	-8	.	.
CCOC(=O)c1c(NC(=O)CN2CCOCC2)sc2c1CC(C)(C)OC2	-11	-4	-2	i	37	-6	-1	-7
CCCCc1nc2ccccc2n1CC(=O)NN	.	0	4	i	.	-10	-17	-1
CCOC(=O)c1nnn(-c2nonc2N)c1-c1ccc(Br)cc1	.	-3	0	i	0	9	-8	-16
NC(=O)[C@@H]1CCOc2c(F)cc([N+](=O)[O-])cc2C(=O)N[C@@H](CO)C(=O)NCC(=O)N1	-20	0	2	i	-2	-11	-1	-1
COc1cccc2cc(-c3nnc(SCC(=O)NCCc4ccccc4)n3C)oc12	1	4	-1	i	12	-5	-4	-3
O=C(NCCOC(=O)c1ccccc1C(=O)OCCNC(=O)c1cccnc1)c1cccnc1	-10	4	4	i	-24	-35	5	-2
Cn1c(CNC(=O)c2ccccc2F)nnc1SCc1ccc(Cl)cc1	.	-3	-2	i	10	.	-24	0
CC(C)C(=O)N1CCN(CCN2C(=O)c3cccc4cccc(c34)C2=O)CC1	1	3	3	i	-1	.	-3	-5
CNCCCOc1ccc(C(C)(C)c2ccccc2)cc1	.	.	.	i	.	.	-2	5
CC(C)CCOc1cccc(C2c3c(oc4ccccc4c3=O)C(=O)N2CCCN2CCOCC2)c1 (stereo not drawn)	-26	3	2	.	8	.	.	.
CCc1nnc(NC(=O)c2cccc(S(=O)(=O)N3CCN(C)CC3)c2)s1	-12	1	2	.	8	.	.	.
CC(=O)Oc1ccccc1C1=NN(C(=O)/C=C/c2ccccc2)C(c2ccccc2)C1 (stereo not drawn)	-14	-2	-9	i	-24	32	10	1
COc1ccc(CCNC(=O)CCn2c(=O)[nH]c3cc(OC)c(OC)cc3c2=O)cc1OC	-10	13	6	i	-12	8	0	-3
COC(=O)C(Cc1c[nH]c2ccccc12)NC(=O)C(C)C (stereo not drawn)	14	-8	0	i	.	10	0	-8
COc1ccc(Cl)cc1C(=O)Nn1c(-c2cccs2)nc2ccccc2c1=O	.	2	-5	i	-3	9	-2	4
COc1ccc(CCNC(=O)C(CCC(N)=O)NS(=O)(=O)c2ccc(Cl)cc2)cc1OC (stereo not drawn)	-3	5	4	i	13	-7	-2	-4
O=C(O)c1cccnc1Sc1ncnc2sc3c(c12)CCC3	-16	-4	-7	i	2	-13	6	-4
Cc1cccc(C(=O)Oc2cccc3c(O)cccc23)c1	-14	0	1	i	2	17	18	4
COc1ccc(NC(=O)Cn2c(=O)oc3ccccc32)cc1	-13	-1	3	i	5	-4	-7	1
O=C1CCC(C(=O)OCC(=O)C23CC4CC(CC(C4)C2)C3)N1 (stereo not drawn)	-12	1	5	i	.	-10	5	2
C=CCn1c(SCC(=O)NCCc2ccccc2)nnc1C1CC1	-11	0	-1	i	-1	7	.	.
COCc1[nH][nH]c(=O)c1C=Nc1ccc(Oc2ccccc2)cc1	-10	-1	-1	i	.	6	1	-8
CCOC(=O)[C@@H]1[C@H]2COc3cc(OC)ccc3[C@@H]2N2C(=O)N(c3ccc(C(F)(F)F)cc3)C(=O)[C@]12C	-14	2	-1	i	2	18	-7	5
COc1ccccc1CNC(=O)COC(=O)c1ncc(Cl)c(Cl)c1Cl	-6	-3	2	i	.	.	.	.
Cc1nn(-c2ccccc2)c(=O)c2noc(C)c12	.	0	5	i	-5	-4	-1	-9
CCOC(=O)c1cccc(NC(=O)CCS(=O)(=O)c2cccs2)c1	-16	1	2	i	-14	0	0	12
O=C(CNC1CCCCC1)Nc1ccc([N+](=O)[O-])cc1C(=O)Nc1ccccc1F	-13	-1	-5	i	4	6	0	23
COc1cc(OC)c(OC)cc1CNC(=O)c1ccc(COc2ccccc2)cc1	4	-5	-19	i	13	5	-8	-2
Cc1c(NC(=O)Nc2ccc(C(C)(C)C)cc2)c(=O)n(-c2ccccc2)n1C	-11	3	-5	i	5	-18	3	-8
COc1ccc(C(=O)N/N=C\c2coc3ccc(Cl)cc3c2=O)cc1	-16	-13	-6	i	.	-7	-8	-5
COc1cccc([C@@H]2CC=C(C(=O)O)[C@H](c3cccc(Cl)c3)N2S(=O)(=O)c2ccc(C)cc2)c1	-3	0	4	.	4	5	.	.
O=C(c1ccc(C(F)(F)F)cc1)N1CCC(=O)N(C(COCc2ccccc2)Cc2ccccc2)CC1 (stereo not drawn)	13	-6	-9	i	63*	4	9	-3
Cc1ccc(CNn2cnnc2SCc2ccc(F)cc2)cc1	-17	-4	-6	i	12	-9	2	-11
Cc1ccc(OCCCCCN2CCOCC2)c(Cl)c1	-21	5	4	i	8	30	.	.

Some of these compounds in order of count of non-hydrogen atoms, smallest number first:
SMILES	UUG fidelity	MT1-MMP act inh	MT1-MMP act inh RFP	Rce1 inh	HIV Env fusion	CSC inhib	PABP polyA inh	eIF4H inh	others
Cc1nn(-c2ccccc2)c(=O)c2noc(C)c12	.	0	5	i	-5	-4	-1	-9
Cc1ccc(OCCCCCN2CCOCC2)c(Cl)c1	-21	5	4	i	8	30	.	.
CCn1cc(CN2N=C(C)CC2c2ccccc2)c(C)n1 (stereo not drawn)	1	2	4	i	0	-11	-5	-10
O=C(O)c1cccnc1Sc1ncnc2sc3c(c12)CCC3	-16	-4	-7	i	2	-13	6	-4
CCOC(=O)c1nnn(-c2nonc2N)c1-c1ccc(Br)cc1	.	-3	0	i	0	9	-8	-16
CCOC(=O)c1cccc(NC(=O)CCS(=O)(=O)c2cccs2)c1	-16	1	2	i	-14	0	0	12
COc1ccccc1CNC(=O)COC(=O)c1ncc(Cl)c(Cl)c1Cl	-6	-3	2	i	.	.	.	.
CCc1nnc(NC(=O)c2cccc(S(=O)(=O)N3CCN(C)CC3)c2)s1	-12	1	2	.	8	.	.	.
Cc1c(NC(=O)Nc2ccc(C(C)(C)C)cc2)c(=O)n(-c2ccccc2)n1C	-11	3	-5	i	5	-18	3	-8
COc1cc(OC)c(OC)cc1CNC(=O)c1ccc(COc2ccccc2)cc1	4	-5	-19	i	13	5	-8	-2
CC(=O)Oc1ccccc1C1=NN(C(=O)/C=C/c2ccccc2)C(c2ccccc2)C1 (stereo not drawn)	-14	-2	-9	i	-24	32	10	1
COc1ccc(CCNC(=O)C(CCC(N)=O)NS(=O)(=O)c2ccc(Cl)cc2)cc1OC (stereo not drawn)	-3	5	4	i	13	-7	-2	-4
COc1ccc(CCNC(=O)CCn2c(=O)[nH]c3cc(OC)c(OC)cc3c2=O)cc1OC	-10	13	6	i	-12	8	0	-3
COc1cccc([C@@H]2CC=C(C(=O)O)[C@H](c3cccc(Cl)c3)N2S(=O)(=O)c2ccc(C)cc2)c1	-3	0	4	.	4	5	.	.
CCOC(=O)[C@@H]1[C@H]2COc3cc(OC)ccc3[C@@H]2N2C(=O)N(c3ccc(C(F)(F)F)cc3)C(=O)[C@]12C	-14	2	-1	i	2	18	-7	5
O=C(c1ccc(C(F)(F)F)cc1)N1CCC(=O)N(C(COCc2ccccc2)Cc2ccccc2)CC1 (stereo not drawn)	13	-6	-9	i	63*	4	9	-3

Back to the main list; the 3 compounds before the break are reprinted first.
SMILES	UUG fidelity	MT1-MMP act inh	MT1-MMP act inh RFP	Rce1 inh	HIV Env fusion	CSC inhib	PABP polyA inh	eIF4H inh	others
O=C(c1ccc(C(F)(F)F)cc1)N1CCC(=O)N(C(COCc2ccccc2)Cc2ccccc2)CC1 (stereo not drawn)	13	-6	-9	i	63*	4	9	-3
Cc1ccc(CNn2cnnc2SCc2ccc(F)cc2)cc1	-17	-4	-6	i	12	-9	2	-11
Cc1ccc(OCCCCCN2CCOCC2)c(Cl)c1	-21	5	4	i	8	30	.	.
CCc1ccc(N2CC(C(=O)N3CCCCCC3)CC2=O)cc1 (stereo not drawn)	-11	-1	1	i	18	.	-12	-5
O=C(c1ccco1)N(CCC(c1ccccc1)c1ccco1)Cc1ccc(F)cc1 (stereo not drawn)	-8	-10	-10	i	.	22	-4	6
O=C(NCC1(N2CCCCC2)CCCCC1)c1ccc(S(=O)(=O)N2CCCC2)cc1	.	1	4	i	12	7	-1	-11
CC1CCN(C(=O)COC(=O)c2ccc3c(c2)OCCO3)CC1	-13	-3	0	.	-7	-2	.	.
COc1ccccc1CNC(=O)COC(=O)c1cccc(S(=O)(=O)N2CCCCC2)c1	-5	2	4	i	1	.	-5	-1
Cc1ccc(CCN2CC(C(=O)NCCCN3CCN(C)CC3)CC2=O)cc1 (stereo not drawn)	-3	0	5	i	-2	12	-2	2
CCc1ccc(NC(=O)CSc2nc3ccccc3c(=O)n2CCCN2CCC(C)CC2)cc1	.	0	-1	i	8	23	6	-3
Cc1cc(NC(=O)CN2C(=O)NC(C)(c3ccccc3Cl)C2=O)no1 (stereo not drawn)	-20	0	4	.	-13	-13	.	.
COc1ccc(-c2cc(-c3ccccc3)nc(Cl)n2)cc1OC	-12	2	-14	i	8	7	10	-2
COC(=O)c1ccc(OCC(O)CN2CCOCC2)cc1 (stereo not drawn)	-25	2	3	i	-33	-4	9	-6
Cc1nc2nc(CSc3nc4ccccc4s3)cc(=O)n2[nH]1	-27	3	8	i	-5	5	19	-4
COc1cccc(C2Oc3ccccc3C3CC(c4cccs4)=NN32)c1 (stereo not drawn)	-9	0	-8	i	-15	15	-6	32
Cc1oc(-c2ccc(Cl)cc2)cc1C(=O)O	.	2	7	i	-55	-3	1	1
CC(=O)c1cccc(NC(=O)COc2nsnc2N2CCOCC2)c1	-5	1	-2	i	.	3	0	4
CCOc1ccc(-c2cnc3cccnn23)cc1	-17	-11	-1	.	-5	.	.	.
Cc1ccc(/C=C2/C(=O)ON=C2c2ccccc2)o1	.	-19	7	i	10	29	6	2
Cc1ccc(SCCC(=O)N(C)CC(=O)Nc2c(C)cccc2C)cc1	3	-1	1	i	-6	-4	6	6
Nc1c(C(=O)NCCc2ccc(Cl)cc2)sc2ccc(S(=O)(=O)N3CCCCC3)cc12	.	.	.	i	18	58	-2	-1
O=P(OCC1CC1)(c1ccccc1)c1ccccc1	-11	1	7	i	.	-11	122*	-2	eIF4H inh retest=16;PABP polyA inh retest=66*
Cc1cc(C)cc(NS(=O)(=O)c2c(C(=O)N3CCOCC3)c(C)n(C)c2C)c1	-8	-2	3	i	2	-11	-6	-3

Assay outcomes as filed in PubChem.
